Rce1 inhib: blocks yeast Ras-converting enzyme | calls only | Q03530 | yeast membranes, quenched prenylated peptide cleavage fluorescence | 0.27% of 290,000 active;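 active = fall in fluorescence gain of 50% or more versus controls, with final raw signal at or below 3038400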;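 note: plate controls were neutral control wells for no effect and wells lacking membranes for full effect; tested at 10 µM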
CSC inhib: blocks cancer stem cells; AID 2717; 1.1% of 300,000 active; cancer stem cell-like cells viability, luminescence; inhibition, % at 7.5 µM;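 active = mean at 75% or more and at least half the replicates too; tested in HMLE shEcad cells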;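 note: 0% = median of negative and 100% = median of positive control wells; the first replicate is given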
Yeast UUG start: alters start codon recognition fidelity in yeast | S. cerevisiae UUG-firefly luciferase reporter, luminescence/redox ratio | 0.13% of 350,000 active | AID 602363 | activity score, % at 18.7 µM;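 active = replicate mean at a twofold rise or more, about +100% in these data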;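 note: firefly luciferase made from a UUG start codon reports start codon fidelity; reporter light over untreated wells divided by growth signal over untreated wells; some hits fall short of that in this replicate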
eIF4H inh: inhibitors of RNA binding by human eIF4H. 0.94% of 290,000 active. eIF4H fluorescence polarization binding assay. AID 2012. inhibition, % at 35 µM. Q15056;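 active = 50% or more with normal probe brightness, or confirmed in later tests; about a fifth of its hits are not listed in these tables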;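 note: calls also rest on retests at 20 µM and on dose response follow-up; 0% = protein and probe with vehicle and 100% = probe without protein; strong numbers were not always called active; many hits fall short of the cut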
PABP FP inh: blocks human PABP binding to poly(A) RNA. fluorescence polarization. P11940. AID 2014. 1% of 290,000 active. inhibition, % at 35 µM;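 active = 50% or more with normal probe brightness, or confirmed in later tests; about a fifth of its hits are not listed in these tables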;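 note: calls also rest on retests at 20 µM and on dose response follow-up; controls were probe without protein and protein plus probe with vehicle; some compounds called inactive have numbers as strong as hits; many hits fall short of the cut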
Target sequence (P11940 whole entry, looked up): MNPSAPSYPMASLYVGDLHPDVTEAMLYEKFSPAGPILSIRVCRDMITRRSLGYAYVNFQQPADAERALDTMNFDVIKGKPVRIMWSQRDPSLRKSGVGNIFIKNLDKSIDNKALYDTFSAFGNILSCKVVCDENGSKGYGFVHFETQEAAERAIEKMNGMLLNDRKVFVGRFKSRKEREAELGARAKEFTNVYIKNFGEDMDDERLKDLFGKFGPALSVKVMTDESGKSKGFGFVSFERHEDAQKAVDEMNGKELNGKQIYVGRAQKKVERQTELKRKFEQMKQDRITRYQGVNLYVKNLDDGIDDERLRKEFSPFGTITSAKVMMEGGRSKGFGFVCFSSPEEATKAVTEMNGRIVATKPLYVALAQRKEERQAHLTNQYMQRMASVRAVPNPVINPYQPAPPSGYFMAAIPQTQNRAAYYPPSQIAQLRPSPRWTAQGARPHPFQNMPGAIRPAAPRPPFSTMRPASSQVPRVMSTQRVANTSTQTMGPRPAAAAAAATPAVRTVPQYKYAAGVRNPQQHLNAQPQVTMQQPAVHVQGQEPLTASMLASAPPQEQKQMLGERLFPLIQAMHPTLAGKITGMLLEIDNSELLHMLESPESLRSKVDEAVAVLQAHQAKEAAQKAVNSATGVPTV
HIV Env fusion: blocks HIV Env-driven cell-cell fusion; HeLa-JRFL Env/CEM21 cell fusion, luciferase; inhibition, % at 12.3 µM; 1.1% of 360,000 active; AID 651610;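 active = mean replicate inhibition score of at least 50 and every replicate individually at or above 50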;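 note: 0% = plate neutral controls and 100% = maraviroc near 300 nM; one replicate is shown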
MT1-MMP act inh: blocks activation of human MT1-MMP; P50281; HT1080 RFP-PRO-GFP cells, GFP/RFP ratio fluorescence, overnight; percent of plate control window, DMSO zero; GFP/RFP ratio change, % at 20 µM; 0.061% of 360,000 active;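 active = GFP/RFP ratio change of at least 30% with cell ATP level not reduced by more than half and red fluorescence within 50% of control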; note: strong numbers were not always called active
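Assay system: HT1080 RFP-PRO-GFP cells. Benchmarks: DMSO vehicle wells and RFP-L50D-GFP reporter cell wells. Times: overnight cell settling, then overnight compound exposure, 37 °C, 5% CO2. Compound: 20 µM single dose, 1% DMSO. Read-out basis: GFP/RFP fluorescence ratio.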
eIF4H inh retest: second read-out of eIF4H inh, no call of its own (marks repeat the call); inhibition, %; compound at 20 µM; confirmation average;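 mean of two retest wells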
PABP FP inh retest: second read-out of PABP FP inh, no call of its own (marks repeat the call); inhibition, %; compound at 20 µM; confirmation repeats;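 mean of two retest wells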
MT1-MMP act inh RFP: recorded beside MT1-MMP act inh, whose call it bears; RFP signal change, %; measured here: RFP expression control read;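 0 = vehicle wells; hits needed this value within 50% of zero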
An asterisk follows results filed as active; i = inactive; / = not tested or not shown. These rows are one share of the data; the hit share may differ from the screen's.

SMILES | Rce1 inhib | CSC inhib | Yeast UUG start | eIF4H inh | PABP FP inh | HIV Env fusion | MT1-MMP act inh | MT1-MMP act inh RFP | others
Cn1c(=O)oc2cc(S(=O)(=O)N3CCC(C(=O)NCc4ccccc4)CC3)ccc21 | i | -10 | -8 | 16 | 42 | -3 | -1 | 3
CC(C)NC(=O)N(C)C[C@H]1OCCCC[C@H](C)Oc2ccc(NS(=O)(=O)c3ccccc3)cc2C(=O)N([C@H](C)CO)C[C@H]1C | / | / | -10 | / | / | -17 | 0 | 3
c1ccc(N2CCN(c3c4c(nc5ncnn35)CCC4)CC2)cc1 | i | -7 | -16 | -1 | -5 | / | 2 | -12
CCN(CC)c1ccc2nc3c4ccccc4c(=O)cc-3oc2c1 | i | 3 | / | 34 | 11 | -103 | / | /
Cc1ccc(N(C(C)C(=O)O)S(=O)(=O)c2c(C)n[nH]c2C)cc1 (stereo not given) | i | -3 | -16 | -8 | 3 | / | -1 | 4
Cc1ccc(-n2c(C)cc(=O)cc2C)cc1[N+](=O)[O-] | i | / | -8 | -2 | -2 | -1 | 7 | 10
C/C(=N\NC(=O)c1ccc(N)cc1)C1CC1 | / | -2 | -19 | 4 | -8 | -71 | 0 | 2
COc1ccc(NC(=O)CN2CCN(CC(=O)Nc3ccccc3Cl)CC2)c(OC)c1 | i | / | -9 | -3 | 5 | 22 | -3 | -8
Cc1ccc(CNC(=O)c2ccccc2SCC(=O)NCC2CCCCC2)cc1 | i | 16 | -1 | -2 | 7 | 21 | 2 | -3
O=c1[nH]c(NC2CCCCC2)c([N+](=O)[O-])c(=O)[nH]1 | i | -10 | -3 | -9 | 1 | / | 1 | 7
COc1ccc(OC)c(NC(=O)CCC(=O)N(Cc2ccc(OC)c(OC)c2)c2nccs2)c1 | i | -17 | / | -8 | -11 | 11 | 0 | -4
O=[n+]1cc(-c2ccccc2)n([O-])c2c1CCCCC2 | i | -2 | / | -1 | -3 | -10 | 0 | 2
CN(C)S(=O)(=O)c1ccc(N2CCCC2)c(C(=O)NNC(=O)COc2ccccc2F)c1 | i | -7 | 15 | / | / | / | -4 | 2
O=C(CCn1cccc1)NCc1ccc2c(c1)OCO2 | i | -4 | -7 | 22 | 3 | / | 5 | 4
CCc1nnc(NS(=O)(=O)c2ccc(NC(=O)c3cccc([N+](=O)[O-])c3)cc2)s1 | i | -7 | -12 | -3 | 0 | 3 | 1 | 4
Cc1c(C(=O)N2CCN(c3ccccc3F)CC2)sc2ncn(CC(=O)N3CCOCC3)c(=O)c12 | / | -4 | -11 | -2 | 0 | / | 3 | 1
CCN(C[C@H]1N[C@@](CC)(C(=O)OC)[C@H]2C(=O)N(C)C(=O)[C@@H]12)C(=O)COc1ccccc1 | / | / | -17 | / | / | 4 | 4 | 13
CN1CCN(C(=O)c2cc(-c3cccc(Cl)c3)on2)CC1 | i | -11 | -14 | -5 | -4 | -70 | 7 | 1
CCOC(=O)N1CCN(C(=O)c2cc3n(n2)C(C(F)(F)F)CC(c2ccc4c(c2)OCO4)N3)CC1 (stereo not given) | i | -9 | -1 | 2 | -14 | 1 | -4 | 0
COc1ccccc1NC1=C(C)C(=O)CC1 | i | 1 | -11 | -9 | 0 | / | / | /
Cc1ccc(Oc2c(CO)c(-c3ccccc3)nn2C)cc1 | i | -4 | / | -1 | 27 | 4 | 4 | 0
O=C(NCCC1=CCCCC1)C(=O)NCC1OCCCN1S(=O)(=O)c1ccc(F)cc1 (stereo not given) | i | 8 | 37 | -1 | 3 | 26 | -3 | -4
CCOC(=O)N/N=C/c1cn(Cc2ccccc2Cl)c2ccccc12 | i | 7 | -3 | 6 | 6 | / | -9 | -22
Cc1cccc(C(=O)OCC(=O)N(C)CC(=O)Nc2ccc(Cl)c(C(F)(F)F)c2)c1 | / | -5 | / | / | / | 9 | 6 | -2
c1ccc(C2=NNC(c3ccccn3)=NN2)nc1 | i | -7 | / | 7 | -4 | -17 | -2 | 1
Cc1oc(-c2ccccc2Cl)nc1CS(=O)CC(=O)NCc1ccccc1Cl (stereo not given) | i | -12 | -22 | 1 | 1 | -3 | -1 | 2
Cc1cc2c(c(=O)n1C)C(C(C)C)C(C#N)=C(N)O2 (stereo not given) | i | -14 | -13 | -5 | -16 | / | -1 | 4
CCOC(=O)c1c(C)[nH]c(C(=O)C(C)Cl)c1C (stereo not given) | i | -1 | / | -8 | 22 | 34 | 4 | 1
O=C(Nc1ccc2ccccc2c1)[C@@H]1C[C@H]1[C@@H](NP(=O)(c1ccccc1)c1ccccc1)c1ccccc1 | / | -22 | -9 | -9 | 15 | -6 | -14 | -7
CCC(=O)Oc1ccc2c(C)cc(=O)oc2c1C | i | -10 | 1 | 7 | -5 | / | -10 | 0
Cc1nn(-c2ccccc2)c2nc(-c3ccccc3)cc(C(=O)N3CCOCC3)c12 | i | 6 | / | 1 | 13 | -10 | -6 | -5
Cc1ccc(CCNC(=O)Cc2ccc(NC3=NC4CS(=O)(=O)CC4S3)cc2)cc1 (stereo not given) | i | / | -20 | 8 | 8 | 5 | -8 | 3
CCn1c(C)cc(/C=C2/NC(=O)N(c3ccccc3)C2=O)c1C | i | -11 | / | 30 | 29 | -44 | -13 | -1
O=C(CN(Cc1ccc(Cl)cc1)C(=O)CNS(=O)(=O)c1ccc(F)cc1)NCC1CCCO1 (stereo not given) | i | 3 | -12 | 2 | 1 | 6 | -2 | 2
COC(=O)CNC(=O)COc1ccccc1 | i | -4 | -40 | -10 | 2 | -8 | -2 | -6
Cc1ccc(-c2cc(C(=O)N3CCN(C(=O)c4ccco4)CC3)[nH]n2)cc1C | i | 1 | 7 | -3 | 3 | -1 | 0 | -4
CC(NC(=O)c1ccccc1Br)C1CC2CCC1C2 (stereo not given) | i | / | 8 | / | / | 14 | 3 | -1
O=C1CN(C(=O)OCc2ccccc2)c2ccccc2N1 | i | / | -18 | 4 | -6 | -391 | 1 | -1
Cc1cc(C(=O)N2CCOCC2)ccc1[N+](=O)[O-] | i | -13 | -4 | 0 | -5 | -5 | 1 | 6
Cc1c(NC(=O)c2cccc(S(=O)(=O)N(C)c3ccccc3)c2)c(=O)n(-c2ccccc2)n1C | / | / | 8 | / | / | 2 | 5 | 0
CC(=O)N1CCN(C(=O)COC(=O)c2ccc(S(C)(=O)=O)cc2)CC1 | / | -19 | -18 | / | / | -14 | 3 | 2
COc1cc(C(=S)N2CCCCC2)ccc1OCC(=O)Nc1ccc(F)cc1 | i | -11 | -27 | -1 | 0 | 34 | -6 | -18
COc1ccc(-c2cc(C(=O)N3CCCCC3)c3ccccc3n2)cc1 | i | 12 | 10 | / | / | 5 | 0 | 0
COc1ccc(/C=C(\C#N)C(=O)OCC(=O)NCc2ccco2)cc1 | i | / | -17 | 5 | -2 | / | 3 | 4
CCOC(=O)c1csc(NC(=O)c2ccc(C#N)cc2)n1 | i | -8 | / | 3 | 15 | -35 | -1 | -5
O=C(c1cccc([N+](=O)[O-])c1)N1CCN(Cc2ccc3c(c2)OCO3)CC1 | i | 6 | / | 0 | 14 | -1 | 8 | 5
Cc1noc(C)c1C(=O)NCCc1ccc(Cl)cc1 | i | 3 | -8 | 3 | 1 | / | -4 | -9
C/C=C/C(=O)OCc1csc(CC(=O)Nc2ccccc2C)n1 | i | -2 | -11 | 20 | 13 | 0 | -3 | 1
COc1cc2nc(NCCCN3CCN(C)CC3)n3nc(-c4ccccc4)nc3c2cc1OC | i | 0 | -1 | -7 | -10 | -79 | 6 | 2
CCOc1ccc(OCC(=O)Nc2ccc(S(=O)(=O)Nc3cc(C)nc(C)n3)cc2)cc1 | i | / | -7 | -2 | 2 | / | -6 | 0
CCCCCCCCCCSc1n[nH]c(N)n1 | i | 26 | -14 | 8 | -6 | 17 | 3 | 2
Cc1cccc(N(CC(=O)NCc2ccco2)C(=O)CCC(=O)Nc2ccccn2)c1 | i | / | / | -6 | -10 | / | 2 | -1
Cc1cccc(CCNC(=O)CC2C(=O)NCCN2Cc2ccccc2C)n1 (stereo not given) | i | -2 | 1 | 6 | 8 | 19 | -2 | 0
CCN(CC)C(=O)CSc1ccccc1N | i | / | -11 | -3 | -4 | / | 3 | 4
COc1ccccc1CCNC(=O)C(=O)NCC1OCCCN1S(=O)(=O)c1ccc(F)cc1C (stereo not given) | i | -6 | 15 | 5 | 9 | -30 | 0 | -3
S=c1[nH]nc(-c2ccccn2)n1/N=C/c1ccc(Cl)cc1 | i | -12 | / | -4 | -18 | 4 | 0 | 0
C/C(CCC(C)C)=N\NC(=S)Nc1cc(S(=O)(=O)N2CCOCC2)ccc1N1CCOCC1 | i | -21 | / | 16 | 30 | 18 | 5 | 0
O=C(NCCCO)c1ccc2nc(-c3ccco3)c(-c3ccco3)nc2c1 | / | / | / | 96 | -1 | -4 | -2 | -2 | eIF4H inh retest=43;PABP FP inh retest=25
Cc1ccc(C)c(OCCOCCN2CC(C)OC(C)C2)c1C (stereo not given) | i | 30 | -16 | -13 | 22 | -33 | 1 | 7
Cc1noc(C(=O)N2CCN(c3ccccc3)CC2)c1Cl | i | -9 | 20 | -5 | 4 | -19 | -3 | 5

Next section; it opens with the 5 that closed the last part.
SMILES | Rce1 inhib | CSC inhib | Yeast UUG start | eIF4H inh | PABP FP inh | HIV Env fusion | MT1-MMP act inh | MT1-MMP act inh RFP | others
S=c1[nH]nc(-c2ccccn2)n1/N=C/c1ccc(Cl)cc1 | i | -12 | / | -4 | -18 | 4 | 0 | 0
C/C(CCC(C)C)=N\NC(=S)Nc1cc(S(=O)(=O)N2CCOCC2)ccc1N1CCOCC1 | i | -21 | / | 16 | 30 | 18 | 5 | 0
O=C(NCCCO)c1ccc2nc(-c3ccco3)c(-c3ccco3)nc2c1 | / | / | / | 96 | -1 | -4 | -2 | -2 | eIF4H inh retest=43;PABP FP inh retest=25
Cc1ccc(C)c(OCCOCCN2CC(C)OC(C)C2)c1C (stereo not given) | i | 30 | -16 | -13 | 22 | -33 | 1 | 7
Cc1noc(C(=O)N2CCN(c3ccccc3)CC2)c1Cl | i | -9 | 20 | -5 | 4 | -19 | -3 | 5
Cc1ccccc1NC(=O)COC(=O)[C@@H]1CCCN1C(=O)c1cccs1 | / | 9 | -5 | / | / | -2 | -1 | 2
Cc1ccc(OCC(=O)N2CCCc3ccccc32)cc1 | i | 1 | 6 | -7 | 2 | / | -1 | 3
Cc1ccc2cc(CCNC(=O)C(=O)c3c[nH]c4ccccc34)c(=O)[nH]c2c1 | / | -1 | / | -1 | 9 | -11 | -1 | -6
O=C(COC(=O)C1CC1)Nc1cccc(Cl)c1 | / | / | 7 | / | / | 11 | -4 | -2
Cc1cc(C)n2nc(CNS(=O)(=O)c3ccc(CC(C)C)cc3)nc2n1 | i | -11 | -5 | -4 | 2 | -2 | 1 | -1
CCCCn1c(Oc2ccc(C(=O)OC)cc2)nc2c1c(=O)n(C)c(=O)n2C | i | 11 | 1 | -1 | -4 | / | -7 | -9
CC1CN(CC(=O)NN=C(c2ccccc2)c2ccccc2)CC(C)O1 (stereo not given) | i | -15 | / | -3 | -4 | 10 | -5 | 0
Cc1cc(Cl)ccc1OCC(=O)Nc1ccncc1 | i | 3 | -18 | 4 | 11 | -26 | -6 | -28
COc1ccc(S(=O)(=O)n2nc(OC(=O)C3CCCCC3)cc2N)cc1 | i | -5 | -1 | 0 | -1 | / | 7 | 2
O=S(=O)(NCc1ccccn1)C(F)(F)F | i | 8 | -5 | 3 | -12 | 3 | -3 | 3
CCCCOc1ccc(C(=O)N/C(=C/c2cccc([N+](=O)[O-])c2)C(=O)O)cc1 | i | -12 | / | 3 | -4 | 7 | -4 | 0

Source: PubChem (several laboratories)
